Marburg entry inh = qHTS for inhibitors of binding or entry into cells for Marburg Virus; Marburg virus pseudotyped entry inhibition, cell reporter; control for the full effect not named in the record; about a third of the inactives were read at about 46 µM; 300,000 tested, 1.8% active; Potency, µM (highest dose often 37.8 µM), for the others: top-dose activity change, negative = inhibition, actives largely listed as inhibitors; active = well fitted inhibition curve with a large enough effect; inconclusive = small, poorly fitted or top-dose-only effect, or effect the other way; inactive = flat fitted curve, though single readings scatter; tested in HEK293 cells; about a fifth of its hits are not listed in these tables; also: % is scaled to controls: 0 for no effect and ±100 for the full control effect; luciferase read-out
2A StopGo = High Throughput Screening for Foot and Mouth Disease Virus Antivirals | human cells with a luciferase reporter of 2A StopGo recoding; control for the full effect not named in the record | Potency, µM (doses to about 57.9 µM), for inactives: at the highest dose signal change, negative = less light | 410,000 tested, 1.2% active | AID 1159524, 2015; active = well fitted falling curve with a large enough effect; inconclusive = small, poorly fitted or top-dose-only effect; inactive = no such curve, though single readings can be large or run the other way; tested in HEK293T cells; also: % is scaled to controls: 0 for no effect and ±100 for the full control effect; nearly all actives have a fitted effect of over 45% in size; luciferase light after 4 h
Cruzain inh noDet = qHTS Assay for Promiscuous and Specific Inhibitors of Cruzain (without detergent) | 200,000 tested, 2.3% active | Potency, µM, for the others: max response, negative = inhibition, usual class: inhibitors | purified cruzain, Z-FR-AMC fluorescence, no detergent | Cruzipain (Trypanosoma cruzi), P25779; active = well fitted curve in the direction sought with a large enough effect; inconclusive = small, poorly fitted or top-dose-only effect, or another doubt; inactive = no such curve, though single readings can be large; an effect the other way counts as inactive or inconclusive;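 also: plate controls were enzyme without inhibitor for no effect and buffer without enzyme for full effect; nearly all actives have a fitted effect of over 40% in size; top concentration of the series not given in the record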
Target sequence (P25779 123-467 limits assumed): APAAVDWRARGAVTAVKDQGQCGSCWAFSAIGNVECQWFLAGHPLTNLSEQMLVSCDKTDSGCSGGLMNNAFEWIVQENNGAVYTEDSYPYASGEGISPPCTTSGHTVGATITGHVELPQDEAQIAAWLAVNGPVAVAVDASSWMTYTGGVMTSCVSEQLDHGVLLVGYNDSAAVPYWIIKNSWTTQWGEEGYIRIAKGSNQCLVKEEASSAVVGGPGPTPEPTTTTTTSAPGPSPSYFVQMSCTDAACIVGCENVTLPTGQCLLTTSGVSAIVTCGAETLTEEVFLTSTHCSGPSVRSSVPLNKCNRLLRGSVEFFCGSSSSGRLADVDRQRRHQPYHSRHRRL
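Detergent-free condition (0.00005% Triton X-100) in acetate buffer pH 5.5 with DTT. 1.5 nM enzyme and compound were pre-mixed 15 min, then 2 uM Z-FR-AMC substrate added; reaction progress from fluorescence change between first and third reads (60 s).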
LASV entry inh = qHTS for Inhibitors of binding or entry into cells for Lassa Virus; 300,000 tested, 1.2% active; Lassa virus pseudotype entry inhibition, cell reporter; control for the full effect not named in the record; Potency, µM (series often up to 37.9 µM), for inactives: at the top dose activity change, negative = inhibition, hits mostly inhibitors; active means well fitted inhibition curve with a large enough effect; inconclusive means small, poorly fitted or top-dose-only effect, or effect the other way; inactive means flat fitted curve, though single readings scatter; tested in HEK293 cells; also: % is scaled to controls: 0 for no effect and ±100 for the full control effect; nearly all actives have a fitted effect of over 50% in size; luciferase read-out
NS1 inh = qHTS Assay for Inhibitors of Influenza NS1 Protein Function; Potency, µM (top dose mostly 46.1 µM), for inactives: at the top dose activity, positive = more growth; 270,000 tested, 0.4% active; AID 2326, 2010; S. cerevisiae slowed by influenza A NS1, growth recovery by OD600; also: actives are rising curves; nearly all actives have a fitted effect of over 50% in size
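Compounds were scored for reversing the slow growth caused by influenza A NS1 in S. cerevisiae, measured by optical density at 600 nm. Assay medium contained 2% galactose at pH 6.0; NS1-free yeast of the same strain were the positive control.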
SARS PLP yeast = qHTS of Yeast-based Assay for SARS-CoV PLP | Potency, µM (series often up to 32.9 µM), for the others: at the highest dose activity, positive = growth rescue | S. cerevisiae expressing SARS-CoV PLpro, growth rescue; control for the full effect not named in the record | 330,000 tested, 0.19% active; also: 0% is about no effect; nearly all actives have a fitted effect of over 55% in size; growth read by luminescence after 48 h
Cruzain inh Det = qHTS Assay for Promiscuous and Specific Inhibitors of Cruzain (with detergent); Cruzipain (Trypanosoma cruzi), P25779; purified cruzain, Z-FR-AMC fluorescence, 0.01% Triton; AID 1478, 2009; 200,000 tested, 0.43% active; Potency, µM, without a hit: max response, negative = inhibition, usual class: inhibitors; active = well fitted curve in the direction sought with a large enough effect; inconclusive = small, poorly fitted or top-dose-only effect, or another doubt; inactive = no such curve, though single readings can be large; an effect the other way counts as inactive or inconclusive;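 also: plate controls were neutral wells for no effect and buffer without enzyme for full effect; nearly all actives have a fitted effect of over 40% in size; top concentration of the series not given in the record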
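Detergent-containing run (0.01% Triton X-100) in acetate buffer pH 5.5 with 5 mM DTT: enzyme at 1.5 nM final, 15 min compound preincubation at room temperature, then 2 uM Z-FR-AMC substrate. Activity taken as 60 s fluorescence increase at 360/450 nm.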
RE007 growth inh = qHTS Assay for Inhibitors of the HIV-1 protein Vpr; Potency, µM (titrated, usually from 92.2 µM), for the others: top-dose activity change, negative = less growth; 360,000 tested, 0.21% active; AID 651644, 2012; S. pombe RE007 Vpr strain, BacTiter-Glo ATP luminescence, 24 h; control for the full effect not named in the record; active = well fitted falling curve with a large enough effect; inconclusive = small, poorly fitted or top-dose-only effect; inactive = no such curve, though single readings can be large or run the other way;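 also: % is scaled to controls: 0 for no effect and ±100 for the full control effect; nearly all actives have a fitted effect of over 50% in size; the assay follows cell death caused by Vpr and the record does not say whether a fall means rescue or toxicity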
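Fission yeast strain RE007, carrying one chromosomally integrated HIV-1 vpr copy, was seeded at OD 0.01 in PMG+AL medium with 23 nL pinned compound. After 24 h at 30 °C and 99% humidity, viability was read by BacTiter-Glo luminescence.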
Numbers without * were called inactive; ? = inconclusive; · = not tested or not shown; & = joins results of further samples; [ ] = remark or other dose. Unless noted, calls follow the shape of the dose curve; as a rule, active means well fitted rising curve with a large enough effect; inconclusive means small, poorly fitted or top-dose-only effect; inactive means no such curve, though single readings can be large or run the other way. Potency is read from the fitted curve at half-maximal effect. This is a random part of the collection, and some 4.5% of all compounds hit somewhere here.

SMILES	Cruzain inh noDet	SARS PLP yeast	RE007 growth inh	LASV entry inh	2A StopGo	Cruzain inh Det	Marburg entry inh	NS1 inh
O=C1NC(=O)C(CCc2ccncc2)(CCc2ccncc2)C(=O)N1Cc1ccccc1	·	0%	-7%	?	51%[activator]	·	23%[46.1 µM]	-4%
O=C(Nc1ccccc1F)c1ccc2ncsc2c1	·	0%	4%	·	60%[activator]	·	·	-4%
COc1ccc(OC)c(N(CC(=O)N2CCC(C)CC2)S(=O)(=O)c2ccc(OC)c(OC)c2)c1	?	-2%	-9%	-25%	0%	0.4%	-6%	2%
COc1ccccc1N1CCN(S(=O)(=O)c2ccc3c(c2)oc(=O)n3C)CC1	6%	-1%	24%	4%&0%[46.1 µM]	37%&-16%[activator]	-2.7%	-3%&-21%[46.1 µM]	-37%
CN1CCN(C(=O)C2=C[C@H](c3ccc(C(F)(F)F)cc3)C[C@H](OCc3ccc(CO)cc3)O2)CC1	·	1%	-3%	·	-22%	·	·	-1%
Cc1cccc2nc(-c3ccccc3)nc(N[C@@H](CO)c3ccccc3)c12	-5%	-81%	-24%	?	-3%	-7.8%	?	·
CC(C)c1ccc(OCC(=O)Nc2cccc(C(=O)Nc3ccccc3C(=O)O)c2)cc1	·	-1%	0%	?	21%	·	·	8%
CCOC(=O)c1c(C)n(C)c2ccc(OCC(O)CNC(CC)CO)cc12 (configuration not stated)	4%	-3%	7%	15%	-22%	-1.0%	?	2%
O=C1Nc2ccccc2Sc2ccccc21	·	-3%	13%	·	-6%	·	·	3%
O=C(NNC(=O)c1sc2cccc(Cl)c2c1Cl)NC1CCCCC1	-7%	9%	-3%	6%	45%[activator]	-9.0%	?	-2%
Cc1ccccc1Cn1c2ccccc2c2cnn(CC(=O)NC3CCC(C)CC3)c(=O)c21 (configuration not stated)	8%	·	·	8%[46.1 µM]	4%	-2.4%	?	·
Cn1c(C(=O)NCc2ccccc2Cl)cc2sc(Cl)cc21	-20%	·	·	·	12%	-5.8%	3.2µM*	·
Cc1ccc(SCC(=O)NC(=O)c2ccccc2Br)c(C)c1	·	-12%	-18%	-6%	-6%	·	27%	·
Cn1c(=O)c2c(nc(NC(Cc3ccccc3)C(=O)O)n2Cc2ccccc2)n(C)c1=O (configuration not stated)	-18%	-3%	-17%	-18%	-21%	-6.7%	?	11%
CC(C)(C)C(=O)NCCCc1ccccc1	7%	-1%	-4%	13%	-9%	3.1%	-8%	-18%
COc1cc(-c2nnc(SCC(=O)N3CCCC3)o2)cc(OC)c1OC	2%	2%	-6%	-18%	-13%	1.1%	5%&5%[46.1 µM]	8%
CSc1nnc(-c2ccc(S(=O)(=O)N3CCOCC3)cc2)n1CC1CCCO1 (configuration not stated)	1%	6%	14%	0%	20%	14%	4%	-7%
COc1ccc2[nH]c3c(=O)n(N)c(C)nc3c2c1	-11%	-5%	5%	3%	2%	-3.9%	3%	10%
CCOC(=O)c1sc(NC(=O)C(C)(C)C)cc1C	-1%	-19%	12%	·	49%[activator]	-6.9%	·	-22%
CN(C)C(/C=C/Nc1cccc(Br)c1)=C(C#N)C#N	·	0%	8%	19%[46.1 µM]	-1%	·	-16%[46.1 µM]	0%
O=C(CNCC1CCCO1)NCc1ccco1 (configuration not stated)	·	1%	7%	-1%	9%	·	5%[46.1 µM]	?
Cc1oc2c(CN3CCCCC3)c(O)ccc2c(=O)c1-c1ccc(Br)cc1	·	2%	9%	-9%[46.1 µM]	-13%	·	5%[46.1 µM]	3%
O=C(Nc1ccc2c(c1)C(=O)N(c1ccccc1)C2=O)C1CCCO1 (configuration not stated)	-6%	-2%	-17%	?	0%	-3.0%	14%	-6%
O=C(CN1C(=O)C2C3C=CC(C3)C2C1=O)Nc1ccc(C(=O)O)cc1 (configuration not stated)	2%	8%	11%	-2%	-6%	3.9%	12%	16%
CCC(C)NC(=O)c1ccccc1NS(=O)(=O)c1ccc(OC)c(OC)c1 (configuration not stated)	-2%	-7%	0%	-1%	-1%	-4.9%	-8%	-8%

(list continues)
SMILES	Cruzain inh noDet	SARS PLP yeast	RE007 growth inh	LASV entry inh	2A StopGo	Cruzain inh Det	Marburg entry inh	NS1 inh
CCc1ccccc1N1C(=O)CN(Cc2cc(OC)c(OC)c(OC)c2)C1=S	·	-3%	-9%	?	-29%	·	?	2%
CC(C)(CO)Nc1ncnc2onc(-c3ccc(F)cc3)c12	·	-1%	-6%	21%[46.1 µM]	-5%	·	?	6%
Cc1cc(NC(C)c2ccccc2)n2ncc(-c3ccccc3)c2n1 (configuration not stated)	·	-6%	-4%	·	15%	·	·	-2%
Nc1nc(=S)n(-c2ccccc2)[nH]1	·	-2%	4%	·	6%	·	1%[46.1 µM]	·
COc1ccc(C(=O)NN=C2CCCC2)c(OC)c1	·	-5%	9%	16%[46.1 µM]	3%	·	17%[46.1 µM]	-3%
CCOC(=O)N1CCN(C(=O)CN(c2ccc(C)c(C)c2)S(=O)(=O)c2ccccc2)CC1	?	-1%	-9%	-40%	4%	-0.2%	?	-2%
Cc1ccc(S(=O)(=O)c2nc(-c3ccc(F)cc3)oc2SCC(=O)c2ccccc2)cc1	?	·	·	?	21%	-1.0%	-5%[46.1 µM]	·
O=C(CC(c1ccccc1)c1ccccc1O)NCc1ccccc1Cl (configuration not stated)	-6%	-6%	-1%	-2%	-21%	-14%	2%	-30%
COc1ccc(N=Nc2c(N)n[nH]c2N)cc1	·	0%	2%	4%[46.1 µM]	19%	·	?	5%
C=CCOC(=O)c1cc(-c2ccc(/C=C3\C(=O)NC(=O)C(C#N)=C3C)o2)ccc1Cl	?	3%	40µM*	-29%	?	?	29%	-2%
CCOC(=O)/C=C/C(=O)OCC(=O)Nc1c(Cl)cccc1Cl	·	-3%	-12%	0%[46.1 µM]	-17%	·	?	·
Cc1cccn2c(=O)cc(COc3cccc(NC(=O)COc4ccccc4)c3)nc12	-13%	·	·	0%[46.1 µM]	-11%	2.0%	·	·
CCOc1ccccc1Nc1cc(C)nc2ccc(C)cc12	·	·	-7%	?	?	·	?	·
COc1ccc2c(c1OC)C(=O)N1c3ccccc3C(=O)N(c3ccccc3)C21 (configuration not stated)	-9%	0%	15%	-16%	0%	-4.3%	?	-14%
Cn1c(=O)c2[nH]c(C3CCCC3)nc2n(C)c1=O	6%&-7%	·	-2%[18.4 µM]	7%	-21%&-13%&-11%	5.8%&-6.7%	?	-6%
CC(C(=O)Nc1cccnc1)c1ccc([N+](=O)[O-])cc1 (configuration not stated)	·	0%	4%	-1%[46.1 µM]	-4%	·	4%[46.1 µM]	·
COc1cccc(NC(=O)CCSc2nc(-c3ccco3)cc(C(F)(F)F)n2)c1	-19%	·	·	8%[46.1 µM]	-15%	-11%	-7%[46.1 µM]	·
CCOc1ccccc1NC(=O)C1CCN(S(=O)(=O)c2cccs2)CC1	0%	·	·	12%[46.1 µM]	-10%	-2.0%	-14%[46.1 µM]	·
CC1(C)CC(=O)c2c(S(C)(=O)=O)sc(Br)c2C1	·	1%	-4%	·	-25%	·	·	3%
CC1(C)Cc2c(c(N3CCOCC3)nc3sc(C#N)c(N)c23)CS1	-8%	·	4%	-9%	-14%	-12%	-1%&-1%[46.1 µM]	12%
CSCCOC(=O)COc1ccc(/C=N/NC(=O)c2c(Cl)cnn2C)cc1	·	-5%	5%	16%	-3%	·	6%	-55%
COCCN(C(=O)CC1C(=O)NCCN1CC(c1ccccc1)c1ccccc1)C(C)C (configuration not stated)	·	1%	3%	·	-7%	·	·	3%
CC1(C)CC(=O)c2sc(NS(=O)(=O)c3ccc(Cl)cc3)nc2C1	·	0%	1%	10%	-6%	·	-1%[46.1 µM]	13%
CC#CC(=O)N1CCC(CO)(CCc2ccccc2)CC1	·	0%	-1%	·	40%[activator]	·	·	0%
O=C(CSc1nnc(NC(=O)C2CCC2)s1)Nc1ccccc1F	·	-3%	-27%	3%	-12%	·	-10%[46.1 µM]	4%

Additional entries:
SMILES	Cruzain inh noDet	SARS PLP yeast	RE007 growth inh	LASV entry inh	2A StopGo	Cruzain inh Det	Marburg entry inh	NS1 inh
COc1ccc(NC(=O)N2CCNC(=O)C2CC(=O)Nc2ccc(F)cc2)cc1 (configuration not stated)	·	2%	-6%	9%	-24%	·	9%	3%
Cc1ccc(C)c(C(=O)N(Cc2nc(-c3ccc(Cl)cc3)no2)C(C)C)c1	7%	-26%	-2%	·	?	-8.6%	·	-102%
O=c1c2ccccc2nc(Cc2ccccc2)n1-c1ccc(O)cc1	·	0%	8%	?	-25%	·	?	-3%
O=[N+]([O-])c1ncccc1OCc1ccccc1Br	·	-8%	?	2%[46.1 µM]	13%	·	27%[46.1 µM]	-51%
O=C(COC(=O)c1cc(=O)[nH]c2ccccc12)c1ccc(Br)cc1	·	2%	9%	9%	19%	·	3%[46.1 µM]	?
CSCC[C@H](NC(=O)[C@H](Cc1ccccc1)n1c(=O)[nH]c2ccccc2c1=O)C(=O)N[C@@H](Cc1ccccc1)C(=O)O	·	-2%	10%	·	-21%	·	·	21%
Cc1[nH]c(=O)[nH]c(=O)c1/C=N/NC(=O)CCCCCNC(=O)OC(C)(C)C	·	1%	-13%	8%	7%	·	?	4%
CC(=O)Nc1ccc(C=NN=C2c3ccccc3-c3ccccc32)cc1	·	·	12%	?	-23%	·	?	·

Screens deposited in PubChem by National Center for Advancing Translational Sciences (NCATS).
